Autofluor counter – flagged as autofluorescent in microsphere protease counterscreen. compound autofluorescence counterscreen, microsphere flow cytometry; hits give high values. fluorescence intensity (test concentration not listed). 360,000 tested, 3.1% active. AID 624483;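 active = at least 3 SD above the mean of all compounds, about 16000 in these data; inconclusive = too few beads counted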;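 also: 100 nL of 1 mM stock went into each well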
Mtb hypoxia inh – inhibitors of hypoxia-regulated fluorescent reporter in Mycobacterium tuberculosis. 300,000 tested, 0.1% active. fluorescence inhibition, % (test concentration not listed). M. tuberculosis hypoxia-regulated fluorescent reporter, fluorescence;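 active = 35 to 45% if threefold the growth effect, above 45% if 1.5-fold the growth effect; inactive = the rest, general growth blockers included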;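 also: wells of about 50 µL received 100 nL stock; 0% = vehicle wells and 100% = reference inhibitor wells; whole bacteria with a GFP reporter of the hypoxia response; strong numbers were not always called active; many hits fall short of the cut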
PrP UTR inh – suppresses PrP 5' UTR mRNA reporter expression. 340,000 tested, 0.35% active. inhibition, % (test concentration not listed). cell-based PrP 5' UTR mRNA reporter, plate reader. AID 488862;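 active = every replicate at 50% or more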;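 also: 0 = median of the neutral control wells; tested in H4 reporter cells; numbers are from one replicate; inactives centre near -14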
Sa ugtP lethal – kills S. aureus RN4220 lacking UgtP; S. aureus RN4220 ugtP deletion, OD600 growth, 16 h; some inactives read as strong as hits; growth inhibition, % (test concentration not listed); 330,000 tested, 0.54% active;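 active = z-score under -3 and OD600 up to 0.15 on both plates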;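 also: plate controls were untreated wells for no effect and antibiotic for full effect; wells of about 80 µL received 100 nL stock; the first replicate is given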
Sa RN4220 lethal – kills Staphylococcus aureus RN4220; 330,000 tested, 0.33% active; S. aureus RN4220 growth, OD600, 16 h; inhibition, % (concentration not given with the values);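 active = z-score of -3 or lower and OD600 up to 0.18 on both plates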;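 also: plate controls were untreated cells for no effect and reference antibiotic for full effect; stock transfer was 100 nL into about 80 µL; one replicate is shown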
BJeLR viability – BJeLR cell viability loss; inhibition, % (no concentration beside the values); AID 1554; 300,000 tested, 0.17% active; BJeLR (HRASV12) viability, CellTiter-Glo ATP luminescence, 48 h; reference of the scale not given here;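 active = replicate mean above 50%; inconclusive = above 50% but judged a plate artefact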;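 also: 50 nL library stock added to about 25 µL; numbers are from one replicate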
Mtb hypoxia inh growth – second read-out of Mtb hypoxia inh, no call of its own (marks repeat the call); growth inhibition, %; measured here: M. tuberculosis growth (absorbance);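 0% = vehicle and 100% = reference antibiotic; read after six days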
* hit, by the source's call; u = inconclusive; x = not tested or not shown.

Value order – Sa RN4220 lethal	Sa ugtP lethal	Autofluor counter	Mtb hypoxia inh	BJeLR viability	PrP UTR inh	Mtb hypoxia inh growth
Cc1cc(C(=O)N/N=C/c2ccc(Cl)c([N+](=O)[O-])c2)c(C)n1-c1ccc(F)cc1
 : x	x	2519	x	-16	-24	x
CSc1n[nH]c(NCc2ccc(Cl)cc2)n1
 : -0.1	3	7905	9	4	-30	4
COc1ccccc1CCNC(=O)CSc1ccc(-c2ccco2)nn1
 : 3.2	2	4436	13	0	-12	3
CCCc1nc2ccc(NC(C)=O)cc2c(=O)n1Cc1ccccc1Cl
 : 7.4	3	3042	-3	-4	-18	11
COC(=O)c1ccc(N2CCN(C)CC2)c([N+](=O)[O-])c1
 : 1.3	4	2547	-3	-4	4	0
COc1ccc2c(c1)c(C=NNc1ccc(C(=O)O)cc1)c(C)n2C
 : 2.2	0	x	16	x	x	6
c1coc(-c2nnc(SCc3cn4ccccc4n3)o2)c1
 : -3.4	4	2186	17	-2	-23	8
CS(=O)(=O)N1c2ccccc2[C@]2(Br)CC3C(=O)NC(Cc4ccccc4)C(=O)N3C12 (stereo partly specified)
 : 4.1	4	x	16	x	x	11
Cc1ccc(C(=O)OCC(=O)NCCc2ccc(F)cc2)cc1S(=O)(=O)N1CCOCC1
 : -1.1	-1	4688	-3	x	-8	-1
O=C(c1cc(-c2cccs2)on1)N1CCc2ccccc2C1
 : 3.0	5	22720*	1	6	-18	6
CN(C)c1cccc2c1c(NC(=O)Nc1ccccc1)nn2C
 : -5.4	-4	4224	-1	1	-29	-1
O=C(COC(=O)c1ccccc1Br)NCCN1C(=O)CSC1=O
 : 1.0	4	3443	-5	-21	-35	-9
O=C(C1=CC(c2csc3ccccc23)CC(OCc2ccc(CO)cc2)O1)N1CCCCCCC1 (stereo unspecified)
 : 1.9	7	x	6	x	x	15
CC(C)(C)c1ccc(CSc2nnc(-c3ccccc3NC(=O)c3ccccc3)o2)cc1
 : -0.3	1	2545	13	9	-14	11
COc1cc(OC)cc(C(=O)Nn2cc(C(=O)Nc3ccc(F)cc3F)c3ccccc3c2=O)c1
 : 0.9	-14	7071	-1	-4	-2	2
Cc1noc(N)c1C1(O)C(=O)N(C(C)C)c2ccccc21 (stereo unspecified)
 : 2.9	3	2190	7	-1	-29	0
O=C(N/N=C\C=C\c1ccc2c(c1)OCO2)C1COc2ccccc2O1 (stereo unspecified)
 : x	x	2830	x	0	-30	x
CN1CCCC1C(O)(c1ccccc1)c1ccccc1 (stereo unspecified)
 : -1.6	-1	11149	1	26	x	7
CCC(=O)N1CCc2cc(S(=O)(=O)CCC(=O)Nc3ccc(OC)cc3)ccc21
 : -3.6	-5	5443	1	-5	-11	12
CCOc1ccc(N2CCCn3c2nc2c3c(=O)n(CCc3ccccc3)c(=O)n2C)cc1
 : 20	14	x	-6	-7	x	1

Single records, from the list above:
c1coc(-c2nnc(SCc3cn4ccccc4n3)o2)c1 in the list: Sa RN4220 lethal = -3.4; Sa ugtP lethal = 4; Autofluor counter = 2186; Mtb hypoxia inh = 17; BJeLR viability = -2; PrP UTR inh = -23; Mtb hypoxia inh growth = 8
COc1ccc2c(c1)c(C=NNc1ccc(C(=O)O)cc1)c(C)n2C in the list: Sa RN4220 lethal = 2.2; Sa ugtP lethal = 0; Autofluor counter = x; Mtb hypoxia inh = 16; BJeLR viability = x; PrP UTR inh = x; Mtb hypoxia inh growth = 6

(further entries)
Value order – Sa RN4220 lethal	Sa ugtP lethal	Autofluor counter	Mtb hypoxia inh	BJeLR viability	PrP UTR inh	Mtb hypoxia inh growth
CC(=O)NC(=S)Nc1ccc(S(=O)(=O)Nc2ncccn2)cc1
 : 6.6	2	5722	10	-11	-98	19
CCOC(=O)c1c(C)nn(Cc2ccccc2)c1N
 : 4.5	8	4265	x	12	-27	x
Cc1cccc(NC(=S)NC2CC3CCCC(C2)N3Cc2cccs2)c1C (stereo unspecified)
 : 0.8	1	9396	-4	3	-18	-5
CCOc1ccc(C(C)=O)cc1CN1C(=O)NC2(CCCCCCC2)C1=O
 : 3.8	14	4082	2	-7	4	5
COC(=O)c1ccccc1NC(=O)C1CCN(S(C)(=O)=O)CC1
 : 2.0	2	5056	17	-1	-9	5
CC1=NNC(=O)C1CCC(=O)N/N=C/c1ccc(Cl)cc1 (stereo unspecified)
 : x	x	4097	x	1	-16	x
CC(Oc1cc2oc(=O)c3c(c2cc1Cl)CCC3)C(=O)NCCCN1CCCC1=O (stereo unspecified)
 : 2.9	13	5342	3	3	6	5
O=C(CN1CCN(Cc2cccc(Cl)c2)C1=O)N1CCC2(CC1)OCCO2
 : -0.9	-2	4292	x	-4	-23	x
c1nnn(C23CC4CC(CC(C4)C2)C3)n1
 : 1.6	0	11323	8	5	-31	8
COc1cc(OC)cc(C(=O)NCC(=O)OCC(=O)N2CC(C)CC(C)C2)c1 (stereo unspecified)
 : 2.0	12	4151	1	-1	-27	-1
O=C(c1ccco1)N1CCN=C1SCc1cccc(Cl)c1
 : 24	12	4027	x	-4	-3	x
O=C(c1ccc(CN2CCOCC2)cc1)N1CCN(c2ccccc2F)CC1
 : 1.0	13	3616	x	-1	-4	x
O=C(c1ccc(S(=O)(=O)N2CCCC2)cc1)N(c1ccc(F)cc1)C1C=CS(=O)(=O)C1 (stereo unspecified)
 : 3.7	3	5381	3	6	-5	7
O=C(NCc1cccnc1)c1ccccc1NS(=O)(=O)c1ccc(F)cc1
 : 1.4	0	4837	1	1	-8	-2
Cn1c(=O)c2[nH]c(CNc3ccc(C(=O)O)cc3)nc2n(C)c1=O
 : x	x	3551	x	4	-15	x
O=C(Oc1cccc(N2C(=O)CCC2=O)c1)c1ccccc1
 : -0.7	-4	3653	-6	-5	-21	-5
COc1ccc(NC(=O)COc2cccc3c2CCN(Cc2cccnc2)C3=O)cc1
 : -2.6	7	5165	7	-6	-16	4
CN(c1ccccc1)S(=O)(=O)c1ccc(C(=O)NCc2ccco2)cc1
 : 3.9	2	x	2	x	-27	-15
Cc1ccc2nc(NNC(=O)c3ccc(S(=O)(=O)N4CCc5ccccc5C4)cc3)sc2c1
 : 9.3	19	4537	10	15	47	-1
CC(C)(C)C(=O)NC(=S)N1CCCC1
 : 1.7	13	2216	8	-5	-22	3
Cc1ccc(-c2noc(CCC(=O)NC3CCCC3)n2)cc1
 : 0.2	4	6957	12	3	-6	3
COc1ccc(-c2nnc(SCC(=O)N3CCc4ccccc4C3)o2)cc1
 : 17	-18	11462	14	1	-18	5
Nc1ncccc1OCc1ccc(Br)cc1
 : 6.5	4	5070	-1	-2	-96	12
CCCCC(=O)NC(c1ccc(N(C)C)cc1)c1ccc2cccnc2c1O (stereo unspecified)
 : x	x	2624	x	57*	42	x
O=C(COc1ccc(S(=O)(=O)NC2CCCCC2)cc1)NCc1ccccn1
 : 5.1	19	5678	7	-7	-6	4
CC(C#Cc1c(C(C)Oc2ccccc2)nnn1Cc1ccccc1)Oc1ccccc1 (stereo unspecified)
 : 4.8	1	x	18	x	x	8
CN1C(=O)NC(c2ccccc2)C2=C1CN(c1ccc3ccccc3c1)C2=O (stereo unspecified)
 : -2.8	17	2546	x	7	-19	x
CCn1cc(C2=NOC(C(=O)Nc3ccc4c(c3)OCO4)C2)c(C)n1 (stereo unspecified)
 : 1.1	7	7490	8	-5	-12	-1
COC(=O)c1cc(C(=O)Nc2ccc(S(=O)(=O)NC(C)(C)C)cc2)cc([N+](=O)[O-])c1
 : 3.0	6	8775	5	15	-13	6
CC(C)(C)c1ccc(-c2noc(CNC(=O)c3ccco3)n2)cc1
 : 2.2	-5	5315	8	-15	-30	8
C=CCn1c(COc2ccc(Cl)cc2)nnc1SCC(=O)N/N=C/c1cccc(O)c1
 : x	x	2782	x	-6	-24	x
Cn1c(N)c(C(=O)COC(=O)Cc2ccsc2)c(=O)n(C)c1=O
 : 9.3	12	3315	11	-3	-11	3
CC(=O)N1CCOc2ccc(S(=O)(=O)N3CCC(C(=O)NCc4ccc(F)cc4)CC3)cc21
 : 0.3	2	4688	-9	5	-14	-8
NS(=O)(=O)c1cc(C(=O)OCC(=O)Nc2ccc3[nH]c(=O)[nH]c3c2)ccc1Cl
 : 1.3	1	3370	7	x	-3	12
O=C1NC(=O)C(=Cc2ccc(-c3ccc(F)cc3O)o2)C(=O)N1
 : 4.4	3	3074	4	0	-21	0
CCOc1ccccc1C1C(C(=O)Nc2ccccc2OC)=C(C)Nc2nnnn21 (stereo unspecified)
 : -0.7	-3	5891	x	2	-16	x
COCCN(Cc1ccccc1)C(=O)c1ccc2c(=O)n3c(nc2c1)CCC3
 : 4.2	4	4390	1	-1	-12	-7
CCCCCC(=O)Nc1ccc(C(=O)COC(=O)Cn2cnc3c2c(=O)n(C)c(=O)n3C)cc1
 : 1.5	9	u	-3	-14	-11	-9
CC1=CC2=NC(=O)/C(=C\c3cccn3CCOc3ccccc3)C(=N)N2O1
 : -2.7	0	2549	-2	7	-18	5
c1ccc2c(c1)CNC1(CCCCC1)C2
 : -14	1	3394	11	-5	-5	4
Cc1ccc(OCC(=O)Nc2nnc(S(=O)(=O)N3CCC(C)CC3)s2)cc1
 : x	x	5441	x	-5	-21	x
CCOC(=O)c1c(O)c2ccccc2n(-c2ccccc2)c1=O
 : -3.3	3	2526	x	11	-2	x
CCN(CC)C(=O)c1ccc(NC(=O)COc2ccc(-c3nn(C)c(=O)c4ccccc34)cc2)cc1
 : 2.5	2	3958	-2	-7	-15	10
O=C(CC1Sc2ncnn2C1=O)Nc1ccccc1 (stereo unspecified)
 : 11	22	13300	6	5	5	3
O=C(Nc1ccc2ccccc2c1)c1onc2c1CCCC2
 : -26	8	3410	25	-1	-62	-24
Cc1c(Cl)cccc1NC(=S)NNc1ncc(C(F)(F)F)cc1Cl
 : 31	36	7899	4	14	-7	6
COc1ccc(-c2cc(C(=O)N3CCN(c4ccccc4)CC3)no2)cc1
 : 7.3	7	5736	4	-3	-92	1
C/C(=N\N=C(/N)c1nonc1N)c1ccc2c(c1)OCO2
 : x	x	3755	x	0	-57	x
CC(=O)c1c(C)[nH]c(C(=O)OCC(=O)Nc2cc(Cl)ccc2[N+](=O)[O-])c1C
 : 5.4	-5	2724	-3	10	-14	12
CC(=NNC(=O)CCC1C(=O)NN=C1C)c1ccc([N+](=O)[O-])cc1 (stereo unspecified)
 : 4.2	9	x	2	x	x	-1
C/C=N\NC(=O)COc1cc(C)ccc1C
 : x	x	4900	x	-5	-12	x
Cc1cc(C)n(C(=O)CN(C)S(=O)(=O)c2ccc([N+](=O)[O-])cc2)n1
 : 12	0	2922	-6	0	-6	-2
COc1ccc(C(=O)Nc2ccc3c(c2)nc(CCNC(C)=O)n3C)cc1
 : 2.2	-1	20535*	5	-15	-27	2
C=CCn1c(SCC(=O)N(CCOC)c2c(N)n(CC(C)C)c(=O)[nH]c2=O)nc2ccccc21
 : 2.2	10	u	-6	6	-15	-3
CC(C)NC(=O)c1ccccc1NC(=O)/C=C/c1ccc([N+](=O)[O-])cc1
 : 5.4	3	11075	3	1	-22	7
CCCNS(=O)(=O)c1cc(Cl)ccc1OC
 : 3.4	3	4470	0	9	-21	3
C=CCOc1ccc(C=NN2C(=O)C(CC(=O)Nc3ccc(F)cc3F)SC2=NC)cc1 (stereo unspecified)
 : -4.0	-20	x	-4	x	x	-17
CCOC(=O)N1CCN(C(=O)CCCOc2ccccc2)CC1
 : 0.3	-1	11134	3	13	-56	5
COc1ccc(C(=O)c2c[nH]c(C(=O)NCCCN3CCOCC3)c2)cc1
 : 0.6	2	4571	8	0	-17	8
OCc1nc2ccccc2n1CC(O)Cn1ccc2ccccc21 (stereo unspecified)
 : 0.1	-13	4569	x	10	-12	x

The listing continues:
Value order – Sa RN4220 lethal	Sa ugtP lethal	Autofluor counter	Mtb hypoxia inh	BJeLR viability	PrP UTR inh	Mtb hypoxia inh growth
CCN(CC)S(=O)(=O)c1ccc(Cl)c(C(=O)OC2CC(C)OC2=O)c1 (stereo unspecified)
 : 2.5	6	3788	-9	-9	3	-12
Nc1ccc(CSc2ccc(Cl)cc2)c(Cl)c1
 : -1.6	4	4119	-3	x	-121	4
C=CCn1cc(C=C2C(=O)NC(=O)NC2=O)c2ccccc21
 : x	x	4080	x	2	-19	x
CCC(=O)N1CCN=C1SCc1ccc(F)cc1
 : -1.2	-8	5547	x	x	-22	x
O=C(NCCc1ccc(Cl)cc1)C1CCN(S(=O)(=O)c2ccc(Br)s2)CC1
 : -17	-1	4322	9	0	-10	2
CCOC(=O)N1CCN(S(=O)(=O)c2ccc(C(=O)Nc3nc4ccc(F)cc4s3)cc2)CC1
 : 6.8	7	11418	4	-4	-8	0

High-throughput results from PubChem.
